From PubChem BioAssay
Sa ugtP lethal = growth inhibition of S. aureus ugtP deletion strain; 330,000 tested, 0.54% active; S. aureus RN4220 ugtP deletion, OD600 growth, 16 h; some inactives read as strong as hits; growth inhibition, % (test concentration not listed);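 active = z-score under -3 and OD600 up to 0.15 on both plates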;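 note: plate controls were untreated wells for no effect and antibiotic for full effect; wells of about 80 µL received 100 nL stock; the first replicate is given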
BJeLR viability = BJeLR cell viability loss; BJeLR (HRASV12) viability, CellTiter-Glo ATP luminescence, 48 h; reference of the scale not given here; inhibition, % (test concentration not listed); 300,000 tested, 0.17% active;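 active = replicate mean above 50%; inconclusive = above 50% but judged a plate artefact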;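 note: 50 nL library stock added to about 25 µL; numbers are from one replicate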
RN4220 kill = S. aureus RN4220 growth inhibition. OD600, 16 h. 330,000 tested, 0.33% active. AID 1259311. inhibition, % (no concentration beside the values);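 active = z-score of -3 or lower and OD600 up to 0.18 on both plates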;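 note: plate controls were untreated cells for no effect and reference antibiotic for full effect; stock transfer was 100 nL into about 80 µL; one replicate is shown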
PrP UTR inh = inhibition of PrP 5' UTR reporter expression; inhibition, % (no concentration beside the values); 340,000 tested, 0.35% active; cell-based PrP 5' UTR mRNA reporter, plate reader; AID 488862;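 active = every replicate at 50% or more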;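 note: 0 = median of the neutral control wells; tested in H4 reporter cells; numbers are from one replicate; inactives centre near -14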
Mtb hypoxia inh = inhibitors of hypoxia-regulated fluorescent reporter in Mycobacterium tuberculosis | fluorescence inhibition, % (test concentration not listed) | M. tuberculosis hypoxia-regulated fluorescent reporter, fluorescence | 300,000 tested, 0.1% active;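 active = 35 to 45% if threefold the growth effect, above 45% if 1.5-fold the growth effect; inactive = the rest, general growth blockers included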;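 note: wells of about 50 µL received 100 nL stock; 0% = vehicle wells and 100% = reference inhibitor wells; whole bacteria with a GFP reporter of the hypoxia response; strong numbers were not always called active; many hits fall short of the cut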
Autofluor counter = compound fluorescence in toxin protease inhibitor counterscreen; compound autofluorescence counterscreen, microsphere flow cytometry; hits give high values; fluorescence intensity (no concentration beside the values); 360,000 tested, 3.1% active; AID 624483;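 active = at least 3 SD above the mean of all compounds, about 16000 in these data; inconclusive = too few beads counted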;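 note: 100 nL of 1 mM stock went into each well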
Mtb hypoxia inh growth = also measured in Mtb hypoxia inh; calls as there; growth inhibition, %; measured here: M. tuberculosis growth (absorbance);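 0% = vehicle and 100% = reference antibiotic; read after six days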
Starred values were filed as active, the others as inactive; ? = inconclusive; nt = no result given; & = joins results of further samples.

compound	Sa ugtP lethal	BJeLR viability	RN4220 kill	PrP UTR inh	Mtb hypoxia inh	Mtb hypoxia inh growth	Autofluor counter
CCOC(=O)C1(CCCc2ccccc2)CCN(C(=O)CCCn2cncn2)CC1	2	1	4.9	-4	-4	-5	3118
C=C(C)CSc1[nH]c(=O)cc(C)c1C#N	6	2	7.0	-16	6	-2	4135
Cc1cc(C)c(NC(=O)CSc2nc3ccc(N4C(=O)c5ccccc5C4=O)cc3s2)c(C)c1	-2	3	3.4	-22	3	-1	3959
CC1(C)CC(=O)C2=C(C1)Nc1ccccc1N(C(=O)C1CC1)C2c1ccco1 (stereo not drawn)	0	2	3.5	-26	13	1	2099
CC(=O)c1sc2nc(CSc3nncn3C)[nH]c(=O)c2c1C	2	-7	2.7	-8	0	-1	3296
CC1(CCO)C(=O)NC(=S)NC1=O	0	nt	1.7	3	7	3	3424
CCOc1ccc(CC(=O)Nc2c(C(N)=O)oc3ccccc23)cc1OCC	-2	-3	-1.1	-20	11	6	3936
CN(c1ccccc1)S(=O)(=O)c1ccc(C(=O)N2CCCC2)cc1	5	nt	5.9	-11	6	3	9287
CCn1c(=O)c(C(=O)NCc2ccccn2)c(O)c2ccccc21	-5	-1	2.1	-10	nt	nt	3508
CC1=C(OC(=O)c2ccccc2)C(C)(C)C(c2ccccc2)OC1=O (stereo not drawn)	-9	-2	-0.8	-11	nt	nt	3116
COc1cccc(NC(=O)CSc2nc3c(sc4ccccc43)c(=O)n2CCCN2CCCC2)c1	-30	-5	-7.6	-9	-5	-3	5594
Cc1nc(Cl)c(C(=O)NC(=O)NCc2ccccc2)c(C)c1Cl	nt	-11	nt	-14	nt	nt	7894
COc1cccc(-c2cc(C(=O)NCc3ccco3)no2)c1	-10	-3	3.4	-61	2	6	24153*
O=C(CO)N/N=C/c1c2ccccc2cc2ccccc12	nt	3	nt	-8	nt	nt	4732
CC(=O)c1ccc(NC(=S)NC2CCCC(C)C2C)cc1 (stereo not drawn)	-3	6	3.7	-61	-2	14	4265
CC(Sc1nc(-c2ccc(F)cc2)cs1)C(=O)N1c2ccccc2CC1C (stereo not drawn)	2	-7	3.3	-12	6	5	2797
COc1ccc(NS(=O)(=O)c2ccc(N3CCN(CCO)CC3)c([N+](=O)[O-])c2)cc1	0	10	1.0	-7	2	-1	4932
COc1ccc(OC)c(Cc2nnc(CCC(=O)NC3CCCCC3)o2)c1	9	-9	2.7	-28	11	10	4993
Cc1ccc(NC(=O)c2cc(N3C(=O)C=CC3=O)ccc2N2CCOCC2)cc1Cl	34	1	7.6	-63	6	5	2067
Cn1c(=O)cc(Nc2ccccc2)[nH]c1=O	5	7	4.9	-21	11	-4	3952
CCOc1ccc(N(CC(=O)NC(C)(C)C)S(=O)(=O)c2c(C)noc2C)cc1	1	1	-0.1	10	nt	nt	5786
O=C(CCSc1ccccc1)NCCN1CCOCC1	-3	-1	-3.1	-15	3	-2	?
Cc1ccc(S(=O)(=O)N2CCC(C(=O)OCC(=O)NCc3cccc(Cl)c3)CC2)cc1C	-2	nt	1.8	-5	9	2	5852
COC(=O)C1OC(OC2CC[C@]3(C)C(CC[C@@]4(C)[C@@H]3CC=C3[C@@H]5CC(C)(C)CC[C@]5(C(=O)OC5OC(CO)C(O)C(O)C5O)CC[C@]34C)C2(C)C)C(O)C(O)C1O[C@H]1OCC(O)C(O)C1O (stereo partly drawn)	-10	nt	4.6	-14	-18	-3	4018
CCC(NC(=O)c1ccccc1Br)c1ccccc1 (stereo not drawn)	5	6	15	-15	5	3	3804
Cc1ccccc1CN1C(=O)CSC1=NN=Cc1ccco1	10	nt	5.4	nt	6	-1	nt
NC(=NOC(=O)Cc1ccccc1)c1ccc([N+](=O)[O-])cc1	15	nt	-1.1	nt	-8	9	nt
O=C(N/N=C\c1ccc(F)cc1)c1cc(OCC(F)(F)F)ccc1OCC(F)(F)F	nt	-1	nt	-22	nt	nt	4600
COc1cccc(-c2nnc(NC(=O)c3ccc(S(=O)(=O)N4CCOCC4)cc3)o2)c1	18	16	32	2	nt	nt	3949
CC(C)c1ccc(OCC(=O)Nc2ccccc2C(=O)N2CCOCC2)cc1	2	-5	1.1	-18	18	9	5900
Nc1[nH]c(=S)[nH]c(=O)c1-c1ccccc1	7	nt	3.3	-4	nt	nt	4320
CN(C(=O)c1ccc(NC(=O)Cc2ccc(NC(=O)C3CCN(C(=O)C4CC4)CC3)cc2)cc1)C1CCCC1	7	nt	2.6	-7	1	-2	2957

In another format: results already given
> NC(=NOC(=O)Cc1ccccc1)c1ccc([N+](=O)[O-])cc1
  Sa ugtP lethal = 15; BJeLR viability = nt; RN4220 kill = -1.1; PrP UTR inh = nt; Mtb hypoxia inh = -8; Mtb hypoxia inh growth = 9; Autofluor counter = nt
> O=C(N/N=C\c1ccc(F)cc1)c1cc(OCC(F)(F)F)ccc1OCC(F)(F)F
  Sa ugtP lethal = nt; BJeLR viability = -1; RN4220 kill = nt; PrP UTR inh = -22; Mtb hypoxia inh = nt; Mtb hypoxia inh growth = nt; Autofluor counter = 4600

Full records, looked up by structure. Order of values: Sa ugtP lethal | BJeLR viability | RN4220 kill | PrP UTR inh | Mtb hypoxia inh | Mtb hypoxia inh growth | Autofluor counter
Record of `Nc1[nH]c(=S)[nH]c(=O)c1-c1ccccc1` : 7 | nt | 3.3 | -4 | nt | nt | 4320
Record of `CN(C(=O)c1ccc(NC(=O)Cc2ccc(NC(=O)C3CCN(C(=O)C4CC4)CC3)cc2)cc1)C1CCCC1` : 7 | nt | 2.6 | -7 | 1 | -2 | 2957

Further records follow:
compound	Sa ugtP lethal	BJeLR viability	RN4220 kill	PrP UTR inh	Mtb hypoxia inh	Mtb hypoxia inh growth	Autofluor counter
C#C[C@]1(O)CCC2C3C(CC[C@@]21C)[C@@]1(C)CC[C@@H](O)CC1=C[C@H]3O (stereo partly drawn)	-2	nt	9.4	-12	12	10	3388
COc1cc(NC(=O)OCc2ccccc2)c2ncccc2c1	4	nt	-2.8	-5	5	2	2856
COc1ccccc1S(=O)(=O)Nc1cc(C)nn1-c1ccc(C)cc1	-5	-6	3.8	-12	9	-5	3910
Nc1cccc(-c2nc3ncccc3o2)c1	4	-9	1.5	-11	1	5	3459
C=CCOC(=O)C1=CC(c2ccccc2)C(CCCO)C(OCC)O1 (stereo not drawn)	2&-17	nt	5.6&4.3	nt	1&5	13&2	nt
N/C(=N\O)c1ccc(Cl)cc1Cl	nt	6	nt	-40	nt	nt	?
Cc1ccccc1N1C(=O)N(c2cccc(C(F)(F)F)c2)C2CS(=O)(=O)CC21 (stereo not drawn)	-1	3	-4.5	-19	nt	nt	nt
Cc1oc(-c2ccccc2F)nc1CS(=O)(=O)CC(=O)N1CCOCC1	15	1	8.4	-7	5	1	4648
CCCCCN(C(=O)CCC(=O)OCCOc1ccc(OCC)cc1)c1c(N)n(CCCC)c(=O)[nH]c1=O	-3	5	-0.4	-21	3	3	?
Cc1ccc(C=Nc2ccc(N(C)C)cc2)o1	-7	-6	-1.1	nt	12	10	9565
COC(=O)CSc1nc(NC(C)C)nc(N(C)C)n1	4	7	3.6	-31	-10	3	4245
COc1ccccc1C1NC(=O)NC(C)=C1C(C)=O (stereo not drawn)	2	11	8.4	-19	-5	13	2875
O=C(Nc1ccccc1NC(=O)c1ccccc1Cl)c1ccccc1Cl	2	6	0.2	-16	1	-3	4159
O=C1c2ccccc2C(=O)N1CCN1CCOCC1	6	-10	5.3	3	nt	nt	6028
Cc1ccnc(N2C(=O)c3cccc4c([N+](=O)[O-])ccc(c34)C2=O)c1	2	-1	3.5	-28	3	14	4273
CC(C)(C)OC(=O)NCc1ccc(NC(=O)c2nc[nH]c2C(=O)N[C@@H](Cc2ccccc2)C(=O)OC(C)(C)C)cc1	nt	12	nt	-21	nt	nt	3729
O=S(=O)(c1ccccc1)N1CCN(C2CCCCCCC2)CC1	17	19	3.6	-5	1	-5	2784
CCOC(=O)N1CCN(C(=O)COc2cc(=O)n(CC)c3ccccc23)CC1	-2	3	5.0	-18	4	9	5859
CCOCCCNC(=S)N1CCC(NC(=O)C2CCCCC2)CC1	-2	-5	-1.5	-15	0	13	4440
O=C(c1ccco1)N1CCN(Cc2cccnc2)CC1	2	1	0.4	5	nt	nt	4709
Cc1ccc(S(=O)(=O)N[C@H](C(=O)N2CCC(C(=O)NCC(=O)O)CC2)C(C)C)cc1	nt	1	nt	-10	nt	nt	2198
COc1ccc(NC(=O)C2CC(=O)OC23CCOC(C)(C)C3)cc1 (stereo not drawn)	4	-1	0.7	-11	nt	nt	4222
COCCN(CC(=O)Nc1cccc(C)c1C)C(=O)CN1C(=O)NC2(CCCCC2)C1=O	2	nt	1.1	-3	5	10	4172
N#Cc1c(SCC(=O)Nc2cccc(C(F)(F)F)c2)sc2c(O)cc(=O)[nH]c12	-1	-9	-0.2	-5	0	18	3638
O=C(NCc1ccc(Cl)s1)C1CCC(=O)N(CCc2ccccn2)C1 (stereo not drawn)	2	-6	0.4	-23	6	8	5114
Cc1ccc(NC(=O)C2CCN(S(=O)(=O)c3ccc(F)cc3)CC2)cc1	-5	6	1.2	-20	11	2	23704*
O=C(COC(=O)c1cc(Cl)ccc1Cl)NC1CCCC1	-1	2	1.4	-5	5	-5	3207
Cc1ccc(NC(=O)COc2cccc(C)c2C)cc1S(=O)(=O)N1CCCCCC1	0	0	6.4	-3	5	5	6355
NC(=NOCC(=O)Nc1cccc2ccccc12)c1nonc1N	0	nt	3.2	nt	4	8	nt
CCCCNC(=O)N1CCN(C/C=C/c2ccccc2)CC1	-1	2	-1.6	-22	1	0	2646
CC(=O)NC1=NN(C(C)=O)C(C)(CCS(=O)(=O)c2ccc(Cl)c(Cl)c2)S1 (stereo not drawn)	7	5	5.6	-17	13	2	11219
COc1ccc2c(c1)C(c1cccs1)=NNC(c1cccnc1)=N2	-9	-3	2.7	1	9	2	3404
O=S(=O)(Nc1ncn[nH]1)c1ccc(Cl)cc1	6	4	4.2	-7	4	-1	10474
O=C(Cc1ccc(NS(=O)(=O)c2ccc(F)cc2)cc1)NCc1ccccc1	8	11	-1.7	-14	nt	nt	4882
COc1cc2c(cc1[N+](=O)[O-])n(C(C)C)c(=O)n2C(C)C	-7	-11	-0.8	-3	0	9	2507
O=C(NC1=NCCS1)c1ccc(Cl)c(S(=O)(=O)N2CCCCC2)c1	6	-5	2.6	-21	nt	nt	4071
Cc1cccc(NP2(=O)NCCCN2)c1	3	nt	2.8	-16	7	-6	3574
COc1ccccc1CNC(=O)c1cc(C2CC2)nc2c1cnn2C(C)C	0	nt	-7.3	-13	5	-1	4594
Cc1cc(Cl)nc(-c2ccccc2)n1	-9	-2	3.6	-22	-4	-1	4482
C#Cc1cccc(C(=O)N2CCCC(CCC(=O)NCc3ccccc3F)C2)c1 (stereo not drawn)	-1	7	4.0	-7	3	5	4702

Some values from the list.
Value for `Cc1cccc(NP2(=O)NCCCN2)c1` under Sa ugtP lethal: 3
Value for `Cc1cc(Cl)nc(-c2ccccc2)n1` under Autofluor counter: 4482
Value for `O=S(=O)(Nc1ncn[nH]1)c1ccc(Cl)cc1` under PrP UTR inh: -7
Value for `C#Cc1cccc(C(=O)N2CCCC(CCC(=O)NCc3ccccc3F)C2)c1` (stereo not drawn) under Sa ugtP lethal: -1
Value for `O=C(NC1=NCCS1)c1ccc(Cl)c(S(=O)(=O)N2CCCCC2)c1` under RN4220 kill: 2.6

Other results:
compound	Sa ugtP lethal	BJeLR viability	RN4220 kill	PrP UTR inh	Mtb hypoxia inh	Mtb hypoxia inh growth	Autofluor counter
Cc1ccc(C=NNC(=O)NC23CC4CC(CC(C4)C2)C3)o1	-9	nt	0.8	nt	20	17	nt
S=c1[nH]nc(-c2ccccc2)n1/N=C/c1ccc(Cl)cc1	nt	3	nt	-50	nt	nt	3728
CCc1cc(=O)oc2cc(C)cc(OCC(=O)N3CCC[C@@H]3C(=O)O)c12	9	0	4.4	-26	nt	nt	5752
O=C(NCC(c1cccs1)N1CCOCC1)c1ccccc1NS(=O)(=O)c1ccc(Br)cc1 (stereo not drawn)	-5	10	12	-25	4	4	9184
Cn1nc(-c2ccccc2)c(/C=N/O)c1Cl	nt	7	nt	-14	nt	nt	3497
O=C(Nc1ccccc1C(=O)N1CCCCC1)C1CCCCC1	0	-7	3.1	-8	3	15	22702*
Cc1cccc(Cn2cnc3c(nnn3Cc3ccccc3F)c2=O)c1	-11	-6	-0.8	-13	-6	22	22956*
CCOC(=O)N1CCC(N2CCN(S(=O)(=O)CC)CC2)CC1	11	-2	8.0	-28	8	15	4269

Not a hit list, and some 4% of all compounds hit somewhere here.
